# Source: PubChem BioAssay (several laboratories)
# A1 inh: inhibitors of the anti-apoptotic protein A1, read as caspase activation; MEF A1-2A-BIM cells, Caspase-Glo 3/7 luminescence, 3 h; percent of clofoctol response, vehicle zero; caspase activation, % (no concentration beside the values); hit rate 0.066% among 330,000; AID 2462;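 active means over half of replicate activation scores above 10%, or exactly half above 10 with the replicate mean above 10; inconclusive means replicate mean below 10 yet half the replicates above 10; inactive means over half of replicates below 10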;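 further: wells of about 30 µL received 50 nL stock; many hits fall short of the cut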
# Vif A3G: HIV-1 Vif–A3G interaction blockers – biochemical, TR-FRET, GST-Vif 1-94, biotin-A3G peptide, dose response retest, primary screen (AID 1117319); inhibition, %, or IC50 in µM where a hit was titrated; hit rate 0.57% among 260,000; TR-FRET GST-Vif / biotin-A3G peptide binding; higher % means a stronger effect; test concentration not given here; strong numbers were not always called active;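 active means above the screen mean plus three standard deviations and confirmed in dose response; inconclusive means results disagree or hit not tested in dose response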;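 further: Vif residues 1-94 fused to GST binding biotinylated APOBEC3G peptide 110-148; 0% = full assay without inhibitor and 100% = GST in place of GST-Vif; retest series ran down from 100 µM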
# rRNA inh HTS: inhibitors of bacterial rRNA selective over humanized ribosomes; AID 720706; GFP signal change (wild-type ribosome), % (concentration not given with the values); E. coli WT GFP vs humanized-ribosome RFP mutants, fluorescence, 24 h; stronger effect = lower value; DMSO median 0, no signal -100; hit rate 1.6% among 350,000;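 active means significant combined selectivity score with lowered wild-type GFP, culture density cut under 30%, mutant RFP and density less affected; inactive means any of these conditions unmet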; further: one replicate is shown; some compounds called inactive have numbers as strong as hits
# AF4-AF9 inh: MLL-AF4/AF9 protein interaction inhibition; AlphaScreen, biotin-AF4 peptide binding to FLAG-AF9; hit rate 0.47% among 350,000; AID 651704; P42568; inhibition, % at 10 µM;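 active means every replicate reaching a set inhibition limit, whatever the replicate mean, cut at about 25% in these data; inconclusive means mean inhibition reaches that limit but some replicates miss it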;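 further: 0% = plate neutral control median and 100% = total signal loss; the record names both 10 and 1 µM as test concentration; the first replicate is given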
# Target sequence (P42568 whole entry, looked up): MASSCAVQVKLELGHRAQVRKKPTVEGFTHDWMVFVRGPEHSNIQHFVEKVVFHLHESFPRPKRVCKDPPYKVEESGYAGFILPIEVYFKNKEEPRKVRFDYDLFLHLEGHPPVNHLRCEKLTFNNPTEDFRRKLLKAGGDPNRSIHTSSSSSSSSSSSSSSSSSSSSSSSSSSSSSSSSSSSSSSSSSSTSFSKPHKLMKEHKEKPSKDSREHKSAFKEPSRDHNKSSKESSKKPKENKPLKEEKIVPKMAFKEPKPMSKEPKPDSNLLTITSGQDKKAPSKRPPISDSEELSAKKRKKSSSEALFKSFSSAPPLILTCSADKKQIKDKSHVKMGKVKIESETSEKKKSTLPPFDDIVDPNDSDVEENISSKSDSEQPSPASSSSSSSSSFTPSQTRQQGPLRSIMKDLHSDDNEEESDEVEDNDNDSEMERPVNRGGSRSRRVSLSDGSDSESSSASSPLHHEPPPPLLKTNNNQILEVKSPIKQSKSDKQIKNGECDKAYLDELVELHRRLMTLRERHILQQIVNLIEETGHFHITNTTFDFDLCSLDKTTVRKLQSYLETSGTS
# RanGTP-Impb inh: disruptors of Ran-importin-beta complex formation – biochemical, FRET, CFP-Ran, YFP-importin-beta, homogeneous, primary screen | cell-free CFP-Ran/YFP-importin-beta FRET ratio | inhibition, % (concentration not given with the values) | hit rate 1.1% among 300,000;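 active means most replicates above 15%; inconclusive means exactly half above 15%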;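 further: 0% = DMSO wells and 100% = Ran loaded with GDP instead of GTP; wells of about 40 µL received 100 nL stock; the first replicate is given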
# Beta cell apopt: beta cell apoptosis inhibition; protection from apoptosis, % (test concentration not listed); hit rate 0.8% among 300,000; INS-1E cytokine-induced death, ATP luminescence, 48 h; percent of positive-control rescue, neutral wells zero; AID 435005;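 active means all replicates at 75% or more, or half of them and the mean; inconclusive means half reach 75% but not the mean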;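 further: 0% = cytokine-treated negative control wells and 100% = positive control rescue; higher means more ATP so stronger rescue from cytokine killing; wells of about 40 µL received 100 nL stock; the first replicate is given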
# T cruzi repl: blocks replication of Trypanosoma cruzi. T. cruzi beta-gal in NIH3T3, luminescence, 90 h. inhibition, % (concentration not given with the values). hit rate 1.4% among 300,000;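 active means mean inhibition across valid replicates above about 55%, limit read from the data; inconclusive means mean below that limit but half or more replicates reach it; inactive means mean below it, under half of replicates reach it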;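 further: signal also drops with host cell toxicity which is not excluded here; 0% = plate median of DMSO wells and 100% = zero luminescence signal; higher percent means less beta-gal luminescence so fewer parasites; stock transfer was 50 nL into about 50 µL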
# Calb FLC: C. albicans growth modulation with fluconazole. C. albicans CaCi-2 (fluconazole-resistant clinical isolate) + fluconazole, Alamar Blue growth, 48 h. growth inhibition, % (concentration not given with the values). hit rate 0.57% among 300,000;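 active means most replicates above 75%; inconclusive means exactly half above 75%; inactive means most below 75%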;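 further: all wells also contain fluconazole at 8 µg/ml as a sub-toxic cotreatment; 0% = median of DMSO wells and 100% = median of geldanamycin control wells; wells of about 8 µL received 7.5 nL stock; the first replicate is given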
# rRNA inh HTS OD600: also measured in rRNA inh HTS; calls as there; OD600 change, %; measured here: OD600 growth;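 optical density of the mix in the first replicate; 0 = DMSO median and -100 = no signal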
# rRNA inh HTS RFP: recorded beside rRNA inh HTS, whose call it bears; RFP signal change, %; measured here: RFP humanized mutant strains;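 first replicate; 0 = DMSO median and -100 = no signal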
# Active calls of the source: *; ? = inconclusive; · = no result given; & = joins results of further samples.
SMILES,A1 inh,Vif A3G,rRNA inh HTS,rRNA inh HTS OD600,rRNA inh HTS RFP,AF4-AF9 inh,RanGTP-Impb inh,Beta cell apopt,T cruzi repl,Calb FLC
CCN1C(=O)c2cccc3c(S(=O)(=O)NCc4ccco4)ccc1c23,-1.8,24%,·,·,·,·,2.2,-6,-7,32
c1coc(-c2nc3c([nH]2)CCc2nonc2-3)c1,-1.6,3%,·,·,·,·,0.6,·,1,7
CN(Cc1cccc(Cl)c1)C(=O)C1CCN(C(=O)Nc2ccccc2)CC1,0.3,2%,-2,7,0.0,-13,-2.8,-4,3,13
CCCCNC(=O)CCC(=O)N1CCN(C(c2ccccc2)c2ccccc2)CC1,2.1,-5%,-22,-26,-1.5,5.1,-0.6,-4,3,5
O=C(COC(=O)C1CC1)Nc1ccc2[nH]c(=O)[nH]c2c1,-0.2,9%,7,17,12,-11,2.9,-3,-4,-1
O=C(Nc1ccccc1C(=O)Nc1ccccc1C(=O)O)c1ccccc1,-0.5,·,-38,-58,-9.6,-1.7,-2.5,8,-4,-1
COc1ccc(/C=C/C(=O)NCCc2ccc(OC)c(OC)c2)cc1,-0.2,3%,·,·,·,·,5.2,-1,2,-19
CC(C)NC(=O)CN(C)S(=O)(=O)c1ccc(F)cc1,-0.5,2%,·,·,·,·,5.7,-4,-20,1
OCc1nc2ccccc2n1CC(O)COc1ccccc1 (centres undefined),-0.1,31%,·,·,·,·,-1.6,1,4,-9
COCCNc1nc2c(c(=O)n(C)c(=O)n2C)n1Cc1cccc(C(F)(F)F)c1,-0.4,0%,·,·,·,·,0.1,87*,18,-2
CCN(CC)C(=O)CSc1nc(N)c(C#N)c(-c2cccs2)c1C#N,-0.4,-54%,·,·,·,·,-0.3,3,12,8
CCN(Cc1ccccc1)C(=O)Cn1c(=O)oc2ccccc21,-0.2,9%,12,5,0.0,-1.1,2.3,-8,-27,-3
COc1ccc(-c2cc(-c3cccnc3)c(C#N)c(N)n2)cc1,-1.2,-61%,13,-15,-1.8,·,29,-1,0,1
O=C(CSc1nnc(CNc2ccc(F)cc2)n1Cc1ccco1)N1CCCC1,-0.1,8%,·,·,·,·,-0.9,1,2,-9
CC(C)Sc1nc2c(c(=O)[nH]c(=O)n2C)n1CC(O)COc1ccccc1 (centres undefined),-0.5,9%,5,5,4.4,-2.4,-0.9,·,-5,?
O=C(c1ccco1)N1CCN(C(=S)Nc2ccccc2C(F)(F)F)CC1,0.2,·,4,5,-0.1,-1.7,1.1,-5,-8,3
Cc1ccc(N(CC(=O)N/N=C/c2cccnc2)S(=O)(=O)c2ccccc2)cc1,-0.4,2%,-17,-15,0.6,-9.3,?,-1,4,-7
CCC(c1nnnn1Cc1ccc2c(c1)OCO2)N1CCN(c2ccc(OC)cc2)CC1 (centres undefined),-0.4,1%,·,·,·,·,-1.7,4,14,-5
CCCCCc1nnc(N)s1,0.4,0%,·,·,·,·,8.8,-3,-2,30
COc1ccc(CNC(=O)Cn2c(=O)n(CCC(=O)N3CCCCC3)c(=O)c3sccc32)cc1,0.0,·,14,6,4.5,0.3,1.6,1,1,-4
Cc1cc(F)ccc1NC(=O)C1CCN(S(=O)(=O)c2ccc3c(c2)CCCC(=O)N3)CC1,0.6,·,8,10,-0.2,-0.2,-0.9,6,38,1
CCN(CC)c1ccc(/C=N/n2c(=S)[nH]nc(C)c2=O)cc1,-0.5,?,7,10,-0.2,·,-0.7,-1,-6,-3
Cc1ccc(S(=O)(=O)Nc2cc(S(=O)(=O)N3CCOCC3)ccc2NCC2CCCO2)cc1 (centres undefined),-1.7,-9%,1,-5,1.5,1.8,·,-4,·,·
CCOC(=O)N1CCC(N2C(=O)c3ccccc3C2Nc2c(C)cccc2C)CC1 (centres undefined),·,1%,-3,4,-5.1,-3.5,3.2,2,10,5
CC(C)C(NC(=O)c1ccco1)C(=O)NC1CCCCCC1 (centres undefined),-0.4,-3%,8,11,-0.6,-2.4,?,-4,11,-24
Cc1cccc(NC(=S)N(CCN(C)C)C(C)c2ccccn2)c1 (centres undefined),-0.7,12%,·,·,·,·,?,-4,1,-9
CCc1ccccc1NS(=O)(=O)c1ccc2c(c1)NC(=O)CC(=O)N2,-0.8,·,·,·,·,·,2.3,-5,-8,-6
CSCc1nnc(NC(=O)c2ccc(S(=O)(=O)N(CC(C)C)CC(C)C)cc2)o1,·,-3%,·,·,·,·,1.7,·,50,-31
COc1ccc(NC(=O)CN(Cc2ccccc2)S(C)(=O)=O)cc1OC,-1.4,-3%,7,3,2.8,5.6,-5.1,6,-8,-1
Cc1cc(C)cc(NC(=O)C(=O)NCCCN2CCOCC2)c1,-0.1,13%,16,13,3.4,1.0,-0.3,-2,4,-2
Cc1ccc(S(=O)(=O)Nc2ccccc2N(C)S(=O)(=O)c2ccc(C)cc2)cc1,-0.6,·,-12,-8,-11,1.2,-4.2,110*,21,12
CSCCC(NS(=O)(=O)c1ccc2c(c1)c(=O)n(C)c(=O)n2C)C(=O)NC1CCN(Cc2ccccc2)CC1 (centres undefined),1.0,-4%,7,8,2.5,-8.0,2.0,5,0,?
COc1ccccc1N1CCN(C(=O)CSc2nc(C)cc(=O)[nH]2)CC1,-0.1,29%,9,12,-12,-0.3,0.1,2,-2,-46
COc1ccc(CCNC(=O)CCC(=O)N2CC(C)Oc3ccccc32)cc1OC (centres undefined),0.0,·,4,-1,-1.2,4.4,-3.4,-4,2,6
O=C(Nc1cc(Cl)cc(Cl)c1)N1CCN(C(=O)C2CCCO2)CC1 (centres undefined),-0.1,·,-10,-4,-0.5,-0.8,6.0,·,-3,11
CCCC12CN3CCN(CC(C3)/C1=N\NC(=O)c1ccccc1Cl)C2,-0.3,9%,22,15,2.5,-0.6,4.0,-7,-3,29
CCn1cc(C(=O)NC2CCCCC2)c(=O)c2cc(S(=O)(=O)N(C)C)ccc21,0.1,4%,6,1,-2.0,-2.8,-1.6,4,17,6
Cc1ccc(Cl)cc1N1CCN(S(=O)(=O)c2c(C)[nH]c(C)c2C(=O)N2CCCCC2)CC1,1.6,·,-11,-16,1.5,8.8,-1.5,2,-4,-3
CCN(CC)CCSc1nc(O)c(Cc2ccccc2)c(=O)n1-c1ccccc1,0.1,3%,21,17,1.1,-0.6,-5.1,1,-2,-1
Cc1cccc(C)c1NCC(=O)N1CCN(Cc2ccccc2)CC1,1.0,4%,61,10,-1.8,1.8,0.9,-3,14,-8

# Laid out differently: 2 of the compounds above.
structure | A1 inh | Vif A3G | rRNA inh HTS | rRNA inh HTS OD600 | rRNA inh HTS RFP | AF4-AF9 inh | RanGTP-Impb inh | Beta cell apopt | T cruzi repl | Calb FLC
COc1ccc(NC(=O)CN(Cc2ccccc2)S(C)(=O)=O)cc1OC | -1.4 | -3% | 7 | 3 | 2.8 | 5.6 | -5.1 | 6 | -8 | -1
CSCc1nnc(NC(=O)c2ccc(S(=O)(=O)N(CC(C)C)CC(C)C)cc2)o1 | · | -3% | · | · | · | · | 1.7 | · | 50 | -31

# Next entries.
SMILES,A1 inh,Vif A3G,rRNA inh HTS,rRNA inh HTS OD600,rRNA inh HTS RFP,AF4-AF9 inh,RanGTP-Impb inh,Beta cell apopt,T cruzi repl,Calb FLC
COc1cc(C(=O)N(Cc2cccc(Cl)c2)C2CCS(=O)(=O)C2)cc(OC)c1OC (centres undefined),-1.0,-1%,·,·,·,·,2.6,·,-7,-17
COc1ccc(-c2nc(CCNC(=O)c3cccs3)cs2)cc1,1.0,-2%,-26,-75,-22,0.0,-0.7,0,-7,-1
COc1ccccc1C1(O)CCN(C(=O)c2cccs2)CC1,0.3,5%,·,·,·,·,-0.2,-1,1,5
CC(/C=N/NC(=O)CN1CCN(Cc2ccc(Cl)cc2)CC1)=C\c1ccco1,0.4,?,·,·,·,8.1,0.8,·,3,-5
C#CCNC(=O)C1=C[C@H](c2ccc(Br)cc2)C[C@H](OCc2ccc(CO)cc2)O1,-0.2,0%,·,·,·,2.6&-3.7,-4.7,-1,11,0
COCCn1nnnc1CN1CCC(C)CC1,0.9,0%,·,·,·,·,-1.7,3,-10,6
O=C(Nc1ccc2c(c1)OCO2)c1ccc(Cl)c(S(=O)(=O)N2CCOCC2)c1,-0.4,-9%,-3,-2,0.8,5.5,3.8,2,3,27
CC1CCCCN1S(=O)(=O)c1ccc([N+](=O)[O-])cc1 (centres undefined),0.6,·,0,3,-2.5,3.5,5.4,1,-1,-4
O=C(CCc1ccccc1)Nc1sc2c(c1C(=O)O)CCCC2,-0.3,·,-32*,-12*,-5.6*,-2.1,-1.1,-1,-14,1
CC1CC(OCC(O)CN2CCOCC2)CC(C)(C)C1 (centres undefined),0.5,-3%,10,5,-2.6,11,-0.1,-4,10,0
COCCn1c(SCc2ccc(C)cc2)nc2c1c(=O)[nH]c(=O)n2C,1.1,·,13,7,0.9,-5.8,1.9,0,-6,-9
Cc1onc(-c2ccccc2Cl)c1C(=O)OCC(=O)c1ccc[nH]1,0.5,-2%,-7,-10,-2.4,0.7,5.8,0,-2,3
CCc1nc(SC)[nH]c(=O)c1C,-0.1,-10%,2,-3,-5.0,·,6.3,-2,-11,-1
C/C(CCC1CC(C)OC1=O)=N\NC(N)=S (centres undefined),0.9,5%,15,1,-3.8,1.0,-4.0,-7,5,-4
COc1cc2cc(C(=O)O)[nH]c2c(OC)c1OC,0.6,-1%,4,0,0.2,2.2,4.3,-5,-9,10
CCN1CCN(C(=O)/C=C/c2ccc(C)cc2)CC1,2.1,·,3,7,2.3,1.3,2.7,-4,-2,1
COc1cc2[nH]c(C(=O)N3CCN(C)CC3)cc2c(OC)c1OC,0.1,-8%,20,18,2.4,-0.8,0.6,3,38,-1
CC(=O)N1CCN(C(=O)CNC(=O)c2cccs2)CC1,-0.3,·,4,4,0.2,2.2,·,-4,·,·

# A different layout for some results above:
compound: Cc1onc(-c2ccccc2Cl)c1C(=O)OCC(=O)c1ccc[nH]1
  A1 inh: 0.5; Vif A3G: -2%; rRNA inh HTS: -7; rRNA inh HTS OD600: -10; rRNA inh HTS RFP: -2.4; AF4-AF9 inh: 0.7; RanGTP-Impb inh: 5.8; Beta cell apopt: 0; T cruzi repl: -2; Calb FLC: 3

compound: CC1CCCCN1S(=O)(=O)c1ccc([N+](=O)[O-])cc1 (centres undefined)
  A1 inh: 0.6; Vif A3G: ·; rRNA inh HTS: 0; rRNA inh HTS OD600: 3; rRNA inh HTS RFP: -2.5; AF4-AF9 inh: 3.5; RanGTP-Impb inh: 5.4; Beta cell apopt: 1; T cruzi repl: -1; Calb FLC: -4

compound: CC(=O)N1CCN(C(=O)CNC(=O)c2cccs2)CC1
  A1 inh: -0.3; Vif A3G: ·; rRNA inh HTS: 4; rRNA inh HTS OD600: 4; rRNA inh HTS RFP: 0.2; AF4-AF9 inh: 2.2; RanGTP-Impb inh: ·; Beta cell apopt: -4; T cruzi repl: ·; Calb FLC: ·

# A portion of the library (hit frequency here may not be typical).
